TRPML1 ag: human mucolipin-1 channel agonism. AID 624414. 0.12% of 410,000 active. activation, % (test concentration not listed). TRPML1-expressing cells, Ca2+ dye fluorescence, FDSS; host cell line not named in the record; reference of the full effect not given here. Q9GZU1; in the data active = activation above about 50%; inconclusive = about 30% to 50%; inactive = below about 30%; note: 0% is about no effect; the text of the record puts the active cut at 80%
Target sequence (Q9GZU1 whole entry, looked up): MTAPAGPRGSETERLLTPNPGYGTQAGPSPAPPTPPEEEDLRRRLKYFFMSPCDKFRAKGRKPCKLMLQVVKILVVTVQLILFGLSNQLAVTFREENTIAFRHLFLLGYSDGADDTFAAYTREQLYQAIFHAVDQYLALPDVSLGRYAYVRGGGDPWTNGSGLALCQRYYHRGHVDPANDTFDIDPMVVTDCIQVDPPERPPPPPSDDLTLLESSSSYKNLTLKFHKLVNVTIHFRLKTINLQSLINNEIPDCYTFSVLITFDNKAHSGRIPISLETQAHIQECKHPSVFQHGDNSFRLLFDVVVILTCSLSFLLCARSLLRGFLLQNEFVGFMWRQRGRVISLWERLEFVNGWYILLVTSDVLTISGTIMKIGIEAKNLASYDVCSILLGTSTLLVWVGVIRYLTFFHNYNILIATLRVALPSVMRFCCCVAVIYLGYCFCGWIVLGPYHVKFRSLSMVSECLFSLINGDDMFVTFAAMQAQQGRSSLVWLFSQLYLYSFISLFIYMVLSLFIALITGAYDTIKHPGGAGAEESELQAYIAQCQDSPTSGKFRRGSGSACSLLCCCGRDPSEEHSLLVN
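Calcium fluorescence on an FDSS kinetic reader gave the read-out. Tet-induced TRPML1-DL cells were plated overnight, dye-loaded (Ca8 with quencher, 45-90 min, room temperature, dark), then read 110 s after compound addition, and again 110 s after 4uM final 54-4 (EC80).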
Six1-Eya2 blk: Six1/Eya2 interaction inhibition; activity change, % (test concentration not listed); Q15475+O00167; AID 651725; 0.56% of 360,000 active; AlphaScreen GST-Six1/His-Eya2 binding, biochemical; hits give low values; control for the full effect not named in the record; in the data active = activity change below about -65%; inconclusive = about -30% to -65%; inactive = above about -30%; note: % is set by controls: 0 for no effect and ±100 for the full control effect; compound concentration not given in the record
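Compounds are tested against tagged Six1 and Eya2 proteins bridged by glutathione donor and nickel acceptor beads; after a one-hour incubation at 37 °C without light, AlphaScreen emission is recorded.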
TRPML1 inh: blocks the human TRPML1 channel; Q9GZU1; TRPML1-inducible cells, Ca2+ dye fluorescence, FDSS; hits give low values; inhibition of EC80 agonist-evoked calcium signal; activity change, negative = inhibition, % (concentration not given with the values); 0.02% of 390,000 active; in the data active means activity change below about -50%; inconclusive means about -30% to -50%; inactive means above about -30%;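 note: stimulus is agonist 54-4 at its EC80 concentration; % is set by controls: 0 for no effect and ±100 for the full control effect; compound concentration not given in the record; the text of the record puts the active cut at -80%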
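Tet-induced TRPML1-DL cells loaded with Ca8 no-wash calcium dye were read kinetically on FDSS. Compound addition was followed by EC80 agonist 54-4 (4 uM final); inhibition was read over 110 s.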
D2 PAM: potentiates the human D2 dopamine receptor allosterically | potentiation, % (test concentration not listed) | 0.23% of 360,000 active | P14416 | DiscoveRx D2 beta-arrestin cells, luminescence, 90 min; 100% = 57 uM dopamine signal | AID 624464; active = potentiation of 50% or more; inconclusive = 30% to 50%; inactive = 30% or less;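 note: compound concentration not given in the record; tested on top of an EC20 dose of dopamine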
Target sequence (P14416 whole entry, looked up): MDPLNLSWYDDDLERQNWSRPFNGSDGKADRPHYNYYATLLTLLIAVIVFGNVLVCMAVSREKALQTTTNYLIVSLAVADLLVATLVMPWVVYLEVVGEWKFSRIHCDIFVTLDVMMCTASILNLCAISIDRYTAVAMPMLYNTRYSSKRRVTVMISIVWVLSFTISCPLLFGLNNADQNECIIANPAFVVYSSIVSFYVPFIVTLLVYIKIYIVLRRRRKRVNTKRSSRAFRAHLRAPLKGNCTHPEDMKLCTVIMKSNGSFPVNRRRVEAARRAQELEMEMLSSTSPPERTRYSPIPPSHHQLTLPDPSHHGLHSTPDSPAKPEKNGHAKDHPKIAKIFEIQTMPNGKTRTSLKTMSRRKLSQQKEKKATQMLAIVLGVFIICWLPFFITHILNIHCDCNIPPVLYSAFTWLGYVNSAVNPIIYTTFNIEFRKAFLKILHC
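D2 cells co-treated with compound plus 50 nM dopamine (EC20) for 90 min at 37 deg C to detect potentiation. Beta-arrestin recruitment was read as enzyme-fragment luminescence after 1 h at ambient temperature. Full response was set by 57 uM dopamine.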
D2 agonist: human D2 receptor agonism in beta-arrestin assay; P14416; DiscoveRx PathHunter D2 beta-arrestin, luminescence, 90 min; 100% = 57 uM dopamine signal; activation, % (test concentration not listed); 0.084% of 360,000 active; AID 624465; in the data active = activation above about 40%; inconclusive = about 15% to 40%; inactive = below about 15%; note: compound concentration not given in the record; the text of the record calls up to 30% inactive
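DiscoveRx PathHunter D2 beta-arrestin cells (2,100/well) attached overnight, then compound-stimulated 90 min at 37 C in HBSS/10 mM HEPES/0.1% Tween-20 buffer; beta-galactosidase complementation read by luminescence after 1 h at ambient temperature. Dopamine 57 uM final (EC100) as control.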
PINK1 modulator: changes PINK1 expression | PINK1 immunofluorescence, high-content cytometry, 24 h | Potency, µM (doses to about 76.6 µM), for inactives: at the top dose activation (PINK1 increase), hits mostly activators | 0.2% of 410,000 active | AID 624263; active = well fitted activation curve with a large enough effect; inconclusive = small, poorly fitted or top-dose-only effect; inactive = flat fitted curve, though single readings scatter; cell line not stated here;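 note: potency is the fitted concentration of half-maximal effect; % of control where 0% means no effect; nearly all actives have a fitted effect of over 65% in size; a mitochondrial uncoupler was the plate control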
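Measures PINK1 amount and localization on or inside mitochondria by immunofluorescence. Stable cells get compounds at 5 concentrations for 24 hours before fixation and staining; CCCP controls included.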
Active calls of the source: *; ? = inconclusive; / = not tested or not shown; & = joins results of further samples.

SMILES	TRPML1 ag	Six1-Eya2 blk	TRPML1 inh	D2 PAM	D2 agonist	PINK1 modulator
CC(C)(C)NC(=O)NC(=O)COC(=O)c1c(F)cccc1Cl	0.0	-3	-17	6	-0.3	3.3%
COC(=O)CN1C(=O)CSc2ccc(S(=O)(=O)Nc3ccc(Cl)cc3C)cc21	-0.1	/	-15	/	/	1.6%
Cc1cc2nc3n(c2cc1C)CC1CC(C(=O)NCCC(C)C)N(C)C31 (stereo unspecified)	0.3	-11	-19	-12	-0.1	0.4%
O=C(CSCCOc1ccccc1)NCc1ccncc1	-0.5	5	2	-2	-7.2	1.0%
CCc1cccc(NC(=O)C(NS(=O)(=O)c2ccc3nc(C)sc3c2)C(C)C)c1 (stereo unspecified)	-1.1	/	-17	/	/	2.2%
COc1cccc(C(=O)N2CCC(c3nc4ccccc4s3)CC2)c1	-1.3	/	13	/	/	1.6%
CCC(C)CNC(=O)c1cccc(OC2CCN(CC(C)(C)C)CC2)c1 (stereo unspecified)	-0.6	-4	6	-3	-3.6	1.7%
CNC(=O)COC(=O)c1ccc(Cl)c(S(N)(=O)=O)c1	-0.6	8	5	-10	-4.7	0.1%
O=C1/C(=C/c2cccs2)SC(=S)N1CCC(=O)N1CCCCC1CCO (stereo unspecified)	-0.8	-16	-10	-12	-3.1	1.4%
COc1ccc(CC(=O)Nc2cccc(SC)c2)cc1	-0.3	-2	29	-16	-1.2	-1.3%
Cc1c(CC(=O)Nc2ccc(Cl)cc2)sc2ccc(Cl)cc12	-0.8	5	-18	-25	-2.9	9.8%
CCC(CC)c1nc(C#N)c(NC(C)c2ccccc2)o1 (stereo unspecified)	0.9	0	0	-14	-2.9	0.3%

Reprinted from the part before: 3 compounds, followed by the next part.
SMILES	TRPML1 ag	Six1-Eya2 blk	TRPML1 inh	D2 PAM	D2 agonist	PINK1 modulator
COc1ccc(CC(=O)Nc2cccc(SC)c2)cc1	-0.3	-2	29	-16	-1.2	-1.3%
Cc1c(CC(=O)Nc2ccc(Cl)cc2)sc2ccc(Cl)cc12	-0.8	5	-18	-25	-2.9	9.8%
CCC(CC)c1nc(C#N)c(NC(C)c2ccccc2)o1 (stereo unspecified)	0.9	0	0	-14	-2.9	0.3%
COc1ccc(CCNC(=O)c2cc3c(C)nccc3[nH]c2=O)cc1OC	1.4	-13	16	12	-1.7	1.7%
Cc1ccc(Cn2cc(CN3CC(N(C)C)CS3(=O)=O)nn2)cc1 (stereo unspecified)	-0.7	-2	/	/	/	-0.8%
O=C(NCc1ccccn1)c1cccc(S(=O)(=O)Nc2ccc(F)cc2)c1	0.9	0	4	-13	-0.7	-3.1%
CC(C)NC(=S)n1cc(C(=O)c2cc(Cl)cc(Cl)c2O)cn1	0.7	13	4	0	4.1	3.5%
CC(=O)C[C@H](O)CC(=O)[C@@H]1OC(=O)CCCCC/C=C/Cc2ccccc21	-0.1	6	0	-5	-4.1	-0.5%
COc1ccc(N2CCN(C(=O)COc3ccccc3)CC2)cc1	-0.1	-3	-12	1	-0.5	/
COc1cccc(NC(=O)CCNS(=O)(=O)c2ccc3c(c2)oc(=O)n3C)c1	0.3&-0.6	5	0&-8	9	-1.8	1.6%&0.9%
Cc1nnc2sc(SCC(=O)N3CCCCC3)nn2c1=O	0.3	-5	-12	-3	-2.0	2.3%
N#CC1=C(N)Oc2n[nH]c(-c3cccs3)c2C1c1cccnc1 (stereo unspecified)	-0.2	-5	4	2	0.9	-1.0%
CCCCCNC(=O)C1CC(=O)OC12CCCCC2 (stereo unspecified)	-0.1	-2	-19	-2	-1.4	-1.3%
Cc1nonc1C1CCCN1C(=O)c1cc(COc2ccc(F)cc2Cl)on1 (stereo unspecified)	2.8	-1	62	-6	-2.9	3.3%
CC(C)(C)n1nnnc1C(c1ccc2ncccc2c1)N1CCC(O)CC1 (stereo unspecified)	-0.7	7	-10	-23	-4.5	-0.7%

One compound at a time, as listed above.
`CC(C)NC(=S)n1cc(C(=O)c2cc(Cl)cc(Cl)c2O)cn1` across the screens: TRPML1 ag = 0.7; Six1-Eya2 blk = 13; TRPML1 inh = 4; D2 PAM = 0; D2 agonist = 4.1; PINK1 modulator = 3.5%
`N#CC1=C(N)Oc2n[nH]c(-c3cccs3)c2C1c1cccnc1` (stereo unspecified) across the screens: TRPML1 ag = -0.2; Six1-Eya2 blk = -5; TRPML1 inh = 4; D2 PAM = 2; D2 agonist = 0.9; PINK1 modulator = -1.0%

The list goes on.
SMILES	TRPML1 ag	Six1-Eya2 blk	TRPML1 inh	D2 PAM	D2 agonist	PINK1 modulator
O=C1C=C(N2CCN(C3=CC(=O)CCC3)CC2)CCC1	1.6	4	13	-2	1.1	-1.6%
CCC(CC)c1nnc(NC(=O)CSCc2c(C)noc2C)s1	-0.2	20	2	-16	-3.0	0.8%
CCN1C(=O)/C(=C2/Sc3ccccc3N2CCCS(=O)(=O)O)SC1=S	0.1&1.4	-24&-19	56&12	-10&-5	-5.1&-5.3	2.1%&-0.8%
CCC(=O)c1ccc(OCC(=O)OCC(=O)NCC2CCCO2)cc1 (stereo unspecified)	1.4	-2	-9	-3	1.3	0.4%
CCCCCc1nc2ccccc2c(=O)n1N	-0.7	3	-5	-13	-2.1	1.8%
Cc1oc2c(CN3CCOCC3)c(O)ccc2c(=O)c1-c1ccccc1	-0.3	0	-4	1	-1.7	/
CCOC(=O)[C@]12CCCC=C1N(Cc1ccc(Cl)cc1Cl)C(=O)[C@H](CC(=O)N1CCCCC1)C2	-0.1	-10	/	/	/	2.2%
O=C(O)c1ccccc1-c1ccccc1C(=O)NCCc1ccccc1	-0.5	8	12	0	4.5	-1.5%
Cc1ccc(OCC(=O)Nc2ccc3nc(SCC(=O)N4CCCC4)sc3c2)cc1	2.0	/	27	/	/	7.8%
Cc1ccnc(NC(=O)c2ccc3c(c2)S(=O)(=O)c2ccccc2C3=O)c1	0.5	-2	-3	3	-0.5	3.8%
CCOC(=O)c1nn(-c2ccc(F)cc2)c(-c2ccccc2)c1C(=O)c1ccccc1	1.6	1	56	-13	-6.6	-2.3%
C=CCn1c(SCC(=O)c2cc(C)n(C)c2C)nnc1-c1ccncc1	0.6	-11	19	1	2.3	-1.7%
Cc1c(C(=O)Nc2cccc(Oc3ccccc3)c2)sc(=O)n1Cc1ccc(F)cc1	0.1	-3	/	-2	7.0	0.2%
CC1CCN(S(=O)(=O)c2ccc(C(=O)N3CCN(c4ccccc4F)CC3)cc2)CC1	0.8	15	-6	7	-1.6	2.8%
O=C1C(Cl)=C(N2CCOCC2)C(=O)N1c1cccc(C(F)(F)F)c1	-0.6	-8	-11	-6	-3.7	0.8%
COCCc1nn2c(=O)cc(COC(=O)c3ccco3)nc2s1	-0.2	/	11	/	/	2.3%
COc1ccc(CN2CCc3ccccc3C2)cc1Br	0.8	0	29	-66	-0.9	14%
Cn1c(SC/C=C/c2ccccc2)nnc1-c1ccco1	-0.4	-7	-6	-35	-2.6	1.6%
CCCn1c(N2CCN(C(=O)Nc3ccc(Cl)cc3)CC2)nc2ccccc21	-1.2	6	-10	7	?	0.9%
CCSc1nnc(NC(=O)C2CCCN(S(=O)(=O)c3cnc[nH]3)C2)s1 (stereo unspecified)	0.1	4	1	-2	-0.8	0.2%
Cc1cnc(C(=O)OCC(=O)Nc2ccc(C)c(S(=O)(=O)N(C)C)c2)cn1	-0.6	-4	7	-9	-2.6	1.0%
O=c1cc(CSc2ccc(Cl)cc2)nc2nc[nH]n12	-0.3	11	-8	-6	-0.3	-0.2%
COCCOC(=O)/C(=C\c1cc(C(C)(C)C)c(O)c(C(C)(C)C)c1)C(C)=O	0.6	5	1	-15	-1.8	7.4%
COC(=O)CCCCC(=O)C1C(=O)CC(C)(C)C(C(=O)OC)C1=O (stereo unspecified)	-0.5	4	-2	-5	0.3	-1.2%
CCN(CC)c1ccc2c(C)c(CO)c(=O)oc2c1	0.0	3	6	0	2.3	-1.6%
O=C(COC(=O)Cc1ccsc1)Nc1ccccc1	-0.9	10	-2	-2	1.3	0.5%
COCCNC(=O)C(c1ccc(Cl)cc1)N(Cc1ccco1)C(=O)CCC(=O)Nc1ccccn1 (stereo unspecified)	-0.1	-2	-10	-8	-4.2	0.8%
O=c1cc(C(F)(F)F)nc(SC/C=C/c2ccccc2)[nH]1	1.2	-2	-3	2	6.0	1.1%
CCOC(=O)c1c(NC(=O)C2C3CCC(O3)C2C(=O)O)sc2c1CCC(CC)C2 (stereo unspecified)	-0.6	6	-5	2	-3.2	-1.0%
COc1ccc(CNC(=O)CN(Cc2ccco2)C(=O)CNS(=O)(=O)c2ccccc2)cc1	-1.8	42	1	0	-2.9	-1.0%
O=C(/C=C/[C@H]1O[C@@H](n2cnc3c(NC(=O)c4ccccc4)ncnc32)[C@H](O)[C@@H]1O)N[C@@H](CO)Cc1c[nH]c2ccccc12	-0.7	1	/	0	1.9	0.4%
CC(C)CCN(CC(=O)NC(C)(C)C)C(=O)C(=O)Nc1ccc2c(c1)OCCO2	-0.5	15	-25	-12	-4.6	0.1%
Cc1nn2c(-c3ccc(S(=O)(=O)N4CCN(CCO)CC4)o3)nnc2c2ccccc12	-0.1	?	10	3	-4.1	1.5%
CCOC(=O)C1CCCN(C(=O)c2ccc(OC)c(OC)c2)CC1 (stereo unspecified)	-1.0	0	/	4	-0.7	0.2%
CCOC(=O)c1c(C)[nH]c(C)c1S(=O)(=O)N(C)CC(=O)Nc1cc(Cl)ccc1OC	0.4	/	-12	/	/	0.1%
Cn1c(C(=O)NCc2ccc(F)cc2)cc2c(=O)n(C)c3ccccc3c21	-0.9	/	-19	/	/	1.7%
CC(c1ccc(F)cc1)n1cc(C(=O)NCc2ccccn2)nn1 (stereo unspecified)	0.0	2	-16	-7	-3.9	0.5%
N#CCCNc1ccc(OCCC#N)cc1	-0.5	-4	7	-13	-2.2	3.2%
O=C(c1ccco1)N1CCN(C2CC(=O)N(c3ccc(F)c(Cl)c3)C2=O)CC1 (stereo unspecified)	-0.1	-11	9	-6	-3.5	2.1%
COCCNC(=O)C1(C)CCCN(Cc2sc(C)nc2C)C1 (stereo unspecified)	-0.2	8	/	-3	-5.2	-0.4%
CC1CCN(C(=O)CN2C(=O)c3ccccc3S2(=O)=O)CC1	0.1	-1	2	-6	-0.7	0.9%
COc1cc(C2C(C(=O)c3ccco3)=C(O)C(=O)N2Cc2ccccc2)ccc1O (stereo unspecified)	0.4	1	-9	0	-3.3	0.9%
CS(=O)(=O)N1CCN(CC(=O)NC2CCCC2)CC1	/	5	/	3	-0.9	-0.7%
O=C(Nc1nnc(SCc2c(Cl)cccc2Cl)s1)c1cccc([N+](=O)[O-])c1	-0.1	0	9	-2	-0.4	3.9%
Cc1ccc(C)c(OCCCC(=O)NC2CCCCC2)c1	0.3	-13	4	-19	-3.5	-0.4%
CC[n+]1ccc(/C=C/c2c[nH]c3ccccc23)cc1	5.9	1	-29	-6	-5.9	25µM*
COc1cccc(NC(=O)CC2Nc3cc(C)c(C)cc3NC2=O)c1 (stereo unspecified)	-0.9	/	28	/	/	2.3%

Screens: PubChem, National Center for Advancing Translational Sciences (NCATS)
